# Assay outcomes from PubChem.
# A1 apoptosis 2 = A1 inhibitors via caspase activation, primary screen, cell-based, luminescence, HTS, two replicates; AID 2465, 2010; caspase activation, % (concentration not given with the values); MEF A1-2A-BIM cells, caspase-Glo luminescence, 3 h; percent of clofoctol response, DMSO zero; 24,000 tested, under 10 active; in the data active means caspase activation above about 5.9%;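 further: wells of about 30 µL received 50 nL stock; the first replicate is given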
#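 Test system – A1-2A-BIM-expressing MEF cells · Input – 2500 cells/well · Medium – RPMI-1640 growth medium with 10% FBS · Compound dosing – 50 nL pinned compound · Timing – 3 h compound exposure at 37 °C · Technique – Caspase-Glo luminescence (DEVD substrate) · Evaluation – Caspase-3/7 activity from luminescence increase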
# Starred values were filed as active, the others as inactive.
smiles,A1 apoptosis 2
C[C@@H]1CN([C@@H](C)CO)C(=O)c2cccc(N(C)C)c2O[C@@H]1CN(C)S(=O)(=O)c1cccs1,1.9
CCCN(C)C[C@@H]1Oc2ncc(C#Cc3ccccc3)cc2C(=O)N([C@H](C)CO)C[C@@H]1C,0.3
Cc1ncc(CO)c(/C=N/NC(=O)c2cccc(C(=O)NO)c2)c1O,0.0
COc1ccc(S(=O)(=O)Nc2ccc3c(c2)C(=O)N([C@@H](C)CO)C[C@H](C)[C@H](CN(C)Cc2ccc4c(c2)OCO4)OCCCC[C@H](C)O3)cc1,0.0
O=C(N/N=C/c1ccc(C(F)(F)F)cc1)c1ccccn1,-11
C[C@@H]1CN([C@@H](C)CO)C(=O)c2cc(NS(=O)(=O)c3ccc(F)cc3)ccc2O[C@@H](C)CCCCO[C@H]1CN(C)C(=O)C1CCCCC1,-0.8
C[C@H](CO)N1C[C@H](C)[C@@H](CN(C)S(=O)(=O)c2cccs2)Oc2ccc(NS(=O)(=O)c3cn(C)cn3)cc2C1=O,0.0
C[C@@H]1CN([C@@H](C)CO)C(=O)c2cc(NS(=O)(=O)c3ccc(F)cc3)ccc2O[C@@H](C)CCCCO[C@@H]1CN(C)Cc1ccc(C(=O)O)cc1,-0.2
C[C@@H]1CN([C@@H](C)CO)C(=O)c2cc(NC(=O)NC3CCCCC3)ccc2O[C@@H](C)CCCCO[C@@H]1CN(C)Cc1ccc(C(=O)O)cc1,-0.2
COc1ccc(NC(=O)N(C)C[C@@H]2Oc3ccc(NS(=O)(=O)c4cn(C)cn4)cc3CC(=O)N([C@@H](C)CO)C[C@H]2C)cc1,1.8
C[C@H](CO)N1C[C@H](C)[C@@H](CN(C)C(=O)NC2CCCCC2)Oc2ccc(NS(C)(=O)=O)cc2CC1=O,-0.6
C[C@H]1CCCCO[C@H](CN(C)C(=O)Nc2ccccc2)[C@@H](C)CN([C@@H](C)CO)C(=O)c2cc(N(C)C)ccc2O1,0.0
C[C@H]1CN([C@@H](C)CO)C(=O)Cc2cc(NC(=O)Nc3ccc(F)cc3)ccc2O[C@@H]1CN(C)C(=O)Nc1cccc2ccccc12,0.3
C[C@H]1CN([C@@H](C)CO)C(=O)c2cccc(NS(C)(=O)=O)c2O[C@H]1CN(C)C(=O)Nc1ccc(C(F)(F)F)cc1,0.9
COc1ccc(CN(C)C[C@@H]2Oc3ccc(NC(=O)c4ccncc4)cc3CC(=O)N([C@@H](C)CO)C[C@@H]2C)cc1,-0.1
C[C@@H]1CN([C@H](C)CO)C(=O)c2cc(NS(=O)(=O)c3cn(C)cn3)ccc2O[C@@H]1CN(C)Cc1ccccc1,0.7
C[C@@H]1CCCCO[C@@H](CN(C)Cc2ccc(C(F)(F)F)cc2)[C@@H](C)CN([C@@H](C)CO)C(=O)c2cc(NC(=O)c3ccncc3)ccc2O1,0.2
CNC[C@@H]1Oc2c(NS(C)(=O)=O)cccc2C(=O)N([C@@H](C)CO)C[C@H]1C,-1.6
Cc1noc(C)c1S(=O)(=O)Nc1ccc2c(c1)C(=O)N([C@@H](C)CO)C[C@H](C)[C@@H](CN(C)Cc1ccc(Cl)c(Cl)c1)O2,0.6
COc1ccc(S(=O)(=O)Nc2ccc3c(c2)C(=O)N([C@H](C)CO)C[C@@H](C)[C@H](CN(C)Cc2ccc4c(c2)OCO4)OCCCC[C@H](C)O3)cc1,2.3
COc1ccc(NC(=O)Nc2ccc3c(c2)C(=O)N([C@H](C)CO)C[C@H](C)[C@@H](CN(C)S(=O)(=O)c2cccs2)O3)cc1,0.9
Cc1noc(C)c1S(=O)(=O)Nc1ccc2c(c1)C(=O)N([C@@H](C)CO)C[C@H](C)[C@@H](CN(C)C(=O)Cc1ccccc1)OCCCC[C@H](C)O2,-0.1
O=C(NO)c1cccc(C(=O)N/N=C/c2cccnc2)c1,-1.0
COC(=O)CCCCCCC(=O)N/N=C/[C@H](O)[C@@H](O)[C@H](O)CO,-0.2
C[C@@H]1CN([C@@H](C)CO)C(=O)c2cc(NC(=O)Nc3ccc4c(c3)OCO4)ccc2O[C@H]1CN(C)Cc1ccncc1,-0.5
C[C@H](CO)N1C[C@H](C)[C@@H](CN(C)S(=O)(=O)c2cn(C)cn2)OCCCC[C@H](C)Oc2ccc(NS(=O)(=O)c3ccc(F)cc3)cc2C1=O,-0.7
C[C@@H]1CN([C@H](C)CO)C(=O)c2cc(NS(=O)(=O)c3ccccc3)ccc2O[C@@H](C)CCCCO[C@H]1CN(C)Cc1ccncc1,0.1
CNC[C@@H]1Oc2ccc(NS(=O)(=O)c3ccc(F)cc3)cc2CC(=O)N([C@@H](C)CO)C[C@H]1C,1.2
Cc1noc(C)c1NC(=O)N(C)C[C@H]1Oc2ccc(NC(=O)Nc3ccc4c(c3)OCO4)cc2C(=O)N([C@@H](C)CO)C[C@@H]1C,-0.5
Cc1noc(C)c1NC(=O)N(C)C[C@H]1Oc2ccc(NC(=O)Nc3ccc(C(F)(F)F)cc3)cc2CC(=O)N([C@@H](C)CO)C[C@@H]1C,1.4

# The list continues.
SMILES | A1 apoptosis 2
Cc1noc(C)c1S(=O)(=O)Nc1cccc2c1O[C@H](CN(C)S(=O)(=O)c1ccc(Cl)cc1)[C@H](C)CN([C@@H](C)CO)C2=O | 0.0
COc1ccc(NC(=O)Nc2ccc3c(c2)C(=O)N([C@@H](C)CO)C[C@@H](C)[C@@H](CN(C)S(=O)(=O)c2ccc(OC)cc2)OCCCC[C@H](C)O3)cc1 | -0.4
C[C@H]1CN([C@@H](C)CO)C(=O)c2cc(NC(=O)c3ccncc3)ccc2O[C@H]1CN(C)Cc1ccc(C(=O)Nc2ccccc2N)cc1 | 0.2
O=C1N(Cc2ccccc2)Cc2ccccc2[C@@H]2OC(c3ccc(OCCCO)cc3)=N[C@]12CCS(=O)(=O)c1ccccc1 | 0.3
C[C@@H]1CCCCO[C@@H](CN(C)C(=O)c2ccccc2)[C@@H](C)CN([C@@H](C)CO)C(=O)c2cc(N(C)C)ccc2O1 | 0.9
O=C1C2(CO)C=C(Br)[C@H](C[C@@H]2c2ccccc2)[C@@]12CO2 | 0.8
C[C@@H]1CN([C@@H](C)CO)C(=O)c2cc(N(C)C)ccc2O[C@H]1CN(C)C(=O)Nc1ccc(C(F)(F)F)cc1 | 0.5
COc1ccc(CN(C)C[C@@H]2Oc3c(NC(=O)Nc4ccc(C(F)(F)F)cc4)cccc3C(=O)N([C@H](C)CO)C[C@@H]2C)cc1 | -1.7
CNC[C@H]1Oc2c(NC(=O)c3ccncc3)cccc2C(=O)N([C@@H](C)CO)C[C@@H]1C | 0.7
C[C@@H]1CN([C@H](C)CO)C(=O)c2cc(N(C)C)ccc2O[C@@H]1CN(C)Cc1ccc2c(c1)OCO2 | -0.2
C[C@@H]1CN([C@@H](C)CO)C(=O)Cc2cc(NS(=O)(=O)c3ccc(Cl)cc3)ccc2O[C@@H]1CN(C)C(=O)Nc1ccccc1 | 0.0
C[C@H](CO)N1C[C@H](C)[C@H](CN(C)S(=O)(=O)c2cn(C)cn2)Oc2c(NS(=O)(=O)c3ccccc3)cccc2C1=O | 0.4
C[C@@H]1CN([C@H](C)CO)C(=O)Cc2cc(NC(=O)Nc3ccc(F)cc3)ccc2O[C@@H]1CN(C)C(=O)Nc1ccccc1 | -1.2
C[C@H]1CN([C@@H](C)CO)C(=O)Cc2cc(NS(=O)(=O)c3ccccc3)ccc2O[C@@H]1CN(C)C(=O)Nc1ccc(F)cc1 | 0.5
COc1ccc(S(=O)(=O)N(C)C[C@@H]2Oc3c(NS(=O)(=O)c4ccc(F)cc4)cccc3C(=O)N([C@H](C)CO)C[C@H]2C)cc1 | 0.4
Cc1ccc(S(=O)(=O)N(C)C[C@@H]2OCCCC[C@@H](C)Oc3ccc(NC(=O)Nc4ccc(F)cc4)cc3C(=O)N([C@H](C)CO)C[C@@H]2C)cc1 | 0.4
C[C@H](CO)N1C[C@H](C)[C@@H](CN(C)C(=O)CCCN(C)C)OCCCC[C@H](C)Oc2ccc(NS(=O)(=O)c3ccc(F)cc3)cc2C1=O | -0.2
COc1ccc(S(=O)(=O)N(C)C[C@@H]2Oc3ccc(NC(=O)c4ccncc4)cc3CC(=O)N([C@@H](C)CO)C[C@@H]2C)cc1 | 0.3
COc1ccc(NC(=O)Nc2ccc3c(c2)C(=O)N([C@@H](C)CO)C[C@H](C)[C@H](CN(C)Cc2ccncc2)OCCCC[C@@H](C)O3)cc1 | 1.4
CC(C)NC(=O)N(C)C[C@@H]1Oc2ccc(NC(=O)CCC(F)(F)F)cc2C(=O)N([C@H](C)CO)C[C@H]1C | 0.9
C[C@H]1CN([C@@H](C)CO)C(=O)c2cc(NS(=O)(=O)c3ccc(Cl)cc3)ccc2O[C@H]1CN(C)C(=O)Nc1ccc(F)cc1 | 2.2
Cc1noc(C)c1NC(=O)Nc1ccc2c(c1)C(=O)N([C@H](C)CO)C[C@H](C)[C@H](CN(C)Cc1ccc(C(=O)Nc3ccccc3N)cc1)O2 | 0.9
C[C@@H]1CN([C@@H](C)CO)C(=O)c2cc(NC(=O)Nc3ccc4c(c3)OCO4)ccc2O[C@@H]1CN(C)S(=O)(=O)c1cn(C)cn1 | -0.3
C[C@H]1CCCCO[C@H](CN(C)C)[C@@H](C)CN([C@@H](C)CO)C(=O)c2cc(NS(=O)(=O)c3ccccc3)ccc2O1 | -1.6
CN(C)CCCOc1ccc(/C=N/NC(=O)CCCCCCC(=O)NO)cc1 | -0.6
CNC[C@H]1Oc2c(NC(=O)c3nc4ccccc4s3)cccc2C(=O)N([C@H](C)CO)C[C@@H]1C | 0.6
C[C@H]1CCCCO[C@@H](CN(C)C(=O)C2CCCCC2)[C@@H](C)CN([C@@H](C)CO)C(=O)c2cc(NS(=O)(=O)c3cn(C)cn3)ccc2O1 | -0.6
CCCC(O)C#Cc1cnc2c(c1)C(=O)N([C@H](C)CO)C[C@H](C)[C@H](CN(C)S(=O)(=O)c1ccc(OC)cc1)O2 (some centres not stated) | 0.8
C[C@@H]1CCCCO[C@@H](CN(C)C(=O)C2CCCCC2)[C@H](C)CN([C@H](C)CO)C(=O)c2cc(NC(=O)CCCN(C)C)ccc2O1 | 1.3
Cc1noc(C)c1NC(=O)N(C)C[C@@H]1Oc2ccc(NC(=O)Nc3ccc(C(F)(F)F)cc3)cc2CC(=O)N([C@@H](C)CO)C[C@H]1C | -0.4
C[C@@H]1CN([C@@H](C)CO)C(=O)CCCn2nncc2CO[C@@H]1CN(C)S(=O)(=O)c1ccc(Oc2ccccc2)cc1 | 0.2
C[C@H]1CN([C@@H](C)CO)C(=O)c2cc(NS(C)(=O)=O)ccc2O[C@H]1CN(C)Cc1ccncc1 | -1.0
O=C(NO)c1ccc(C(=O)N/N=C/c2ccc([N+](=O)[O-])c(O)c2)cc1 | -1.0
C[C@@H]1CCCCO[C@@H](CN(C)C(=O)CCCN(C)C)[C@@H](C)CN([C@H](C)CO)C(=O)c2cc(NS(=O)(=O)c3ccc(F)cc3)ccc2O1 | -0.1
C[C@@H]1CN([C@@H](C)CO)C(=O)c2cc(NC(=O)Cn3cnnn3)ccc2O[C@@H]1CN(C)S(=O)(=O)c1ccc(F)cc1 | -0.2
C[C@@H]1CCCCO[C@H](CN(C)C(=O)NC2CCCCC2)[C@H](C)CN([C@H](C)CO)C(=O)c2cc(NC(=O)Cc3ccccc3)ccc2O1 | -0.8
COc1ccc(S(=O)(=O)Nc2cccc3c2O[C@H](CN(C)Cc2ccc4c(c2)OCO4)[C@@H](C)CN([C@@H](C)CO)C3=O)cc1 | -0.4
CNC[C@@H]1Oc2c(NC(=O)Nc3c(C)noc3C)cccc2C(=O)N([C@@H](C)CO)C[C@@H]1C | -0.5
COc1ccc(S(=O)(=O)N(C)C[C@@H]2OCc3cn(nn3)CCCC(=O)N([C@H](C)CO)C[C@@H]2C)cc1 | -0.7
C[C@H](CO)N1C[C@H](C)[C@@H](CN(C)Cc2ccncc2)Oc2c(NC(=O)C3CCOCC3)cccc2C1=O | -0.2
Cc1ccc(S(=O)(=O)N(C)C[C@H]2OCCCC[C@H](C)Oc3ccc(NC(=O)NC(C)C)cc3C(=O)N([C@@H](C)CO)C[C@H]2C)cc1 | -1.4
C[C@@H]1CN([C@H](C)CO)C(=O)CCCn2nncc2CO[C@@H]1CN(C)S(=O)(=O)c1ccccc1 | 0.8
C[C@@H]1CCCCO[C@H](CN(C)C(=O)c2ccccc2)[C@H](C)CN([C@H](C)CO)C(=O)c2cc(NC(=O)C3CCCCC3)ccc2O1 | -0.5

# Structural class: the entries above containing a Cl atom.
SMILES | A1 apoptosis 2
Cc1noc(C)c1S(=O)(=O)Nc1ccc2c(c1)C(=O)N([C@@H](C)CO)C[C@H](C)[C@@H](CN(C)Cc1ccc(Cl)c(Cl)c1)O2 | 0.6
Cc1noc(C)c1S(=O)(=O)Nc1cccc2c1O[C@H](CN(C)S(=O)(=O)c1ccc(Cl)cc1)[C@H](C)CN([C@@H](C)CO)C2=O | 0.0
C[C@@H]1CN([C@@H](C)CO)C(=O)Cc2cc(NS(=O)(=O)c3ccc(Cl)cc3)ccc2O[C@@H]1CN(C)C(=O)Nc1ccccc1 | 0.0
C[C@H]1CN([C@@H](C)CO)C(=O)c2cc(NS(=O)(=O)c3ccc(Cl)cc3)ccc2O[C@H]1CN(C)C(=O)Nc1ccc(F)cc1 | 2.2

# Reformatted: 3 of the compounds above
> C[C@H]1CN([C@@H](C)CO)C(=O)c2cc(NS(C)(=O)=O)ccc2O[C@H]1CN(C)Cc1ccncc1
  A1 apoptosis 2 = -1.0

> COc1ccc(S(=O)(=O)Nc2cccc3c2O[C@H](CN(C)Cc2ccc4c(c2)OCO4)[C@@H](C)CN([C@@H](C)CO)C3=O)cc1
  A1 apoptosis 2 = -0.4

> C[C@H](CO)N1C[C@H](C)[C@@H](CN(C)Cc2ccncc2)Oc2c(NC(=O)C3CCOCC3)cccc2C1=O
  A1 apoptosis 2 = -0.2

# Some of the compounds tested. The share of hits here may be higher or lower than overall.
